Source: PubChem BioAssay (Johns Hopkins Ion Channel Center)
KCNQ2 inh: KCNQ2 potassium channel inhibitors, primary screen, cell-based, CHO-K1, FluxOR thallium flux, B-score (AID 2156). O88943. 20 min; hits give low values; only compounds with negative scores are shown here; some inactives read as strong as hits. B-score at 10 µM. 310,000 tested, 1.1% active;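 active means fluorescence ratio B-score at most minus 3 library SDs, with starting brightness B-score within 2 library SDs, cut at about -5.5 in these data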
Target sequence (O88943 whole entry, looked up): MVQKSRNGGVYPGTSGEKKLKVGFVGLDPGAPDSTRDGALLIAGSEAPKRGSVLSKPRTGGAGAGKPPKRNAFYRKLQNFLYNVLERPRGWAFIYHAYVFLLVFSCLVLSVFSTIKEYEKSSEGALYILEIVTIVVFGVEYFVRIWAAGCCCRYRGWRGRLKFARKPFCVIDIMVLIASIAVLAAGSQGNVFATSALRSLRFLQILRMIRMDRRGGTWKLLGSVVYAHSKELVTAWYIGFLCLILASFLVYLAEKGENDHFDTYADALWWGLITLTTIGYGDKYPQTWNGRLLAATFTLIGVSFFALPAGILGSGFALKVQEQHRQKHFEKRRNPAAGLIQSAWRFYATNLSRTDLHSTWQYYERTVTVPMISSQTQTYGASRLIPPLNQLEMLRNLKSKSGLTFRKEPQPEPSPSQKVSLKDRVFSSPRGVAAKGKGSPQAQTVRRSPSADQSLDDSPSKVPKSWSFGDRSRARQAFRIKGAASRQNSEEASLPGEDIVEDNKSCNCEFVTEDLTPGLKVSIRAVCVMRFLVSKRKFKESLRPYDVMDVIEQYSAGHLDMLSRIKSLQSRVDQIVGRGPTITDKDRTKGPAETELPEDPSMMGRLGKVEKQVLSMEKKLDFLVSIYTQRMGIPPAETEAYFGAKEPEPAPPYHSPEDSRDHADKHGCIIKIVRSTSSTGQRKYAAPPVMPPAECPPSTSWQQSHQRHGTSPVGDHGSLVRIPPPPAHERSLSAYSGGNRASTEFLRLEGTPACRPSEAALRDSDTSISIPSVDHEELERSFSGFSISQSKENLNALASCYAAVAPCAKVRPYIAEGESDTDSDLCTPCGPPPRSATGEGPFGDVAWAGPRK
KCNQ2 inh baseline: also measured in KCNQ2 inh; calls as there; B-score; measured here: initial fluorescence intensity artifact check;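 brightness before thallium and not channel activity; 0 = typical well and far values either way flag optical interference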
An asterisk follows results filed as active; i = inactive.

KCNQ2 inh baseline	KCNQ2 inh	SMILES
-1.2	i	CN1C(=O)/C(=C/c2ccco2)SC1=Nc1cccc(C(=O)O)c1
0.1	i	COc1ccc(-n2c(-c3ccc(Br)cc3)c[n+]3c2CCC3)cc1
-0.21	i	CCN1CCN(C(=O)COCc2cc(-c3ccc4c(c3)OCO4)on2)CC1
-1.4	i	O=C(OCc1nnc(-c2ccc(Cl)cc2)o1)c1ccncc1
0.54	i	COc1ccc(C2=NOC(C)(c3nnc(-c4ccc(Cl)cc4)o3)C2)cc1 (stereo unspecified)
-1.4	i	COc1cc(/C=C/C(=O)NC(=O)c2ccccc2O)ccc1O
-0.22	i	COCc1cc(C)n(CC(=O)OC)c(=O)c1C#N
-0.74	i	Cc1ccc(C(C)c2c(C)c([N+](=O)[O-])cc(C)c2[N+](=O)[O-])cn1 (stereo unspecified)
-1.2	i	CC(=O)c1ccc(OC(C)C)c(CSc2nc(O)cc(=O)[nH]2)c1
-0.29	i	O=S(=O)(NCc1cccs1)c1ccc(Cl)s1
-1.5	i	COC(=O)C(C)Sc1nnc(SC(C)C(=O)OC)s1 (stereo unspecified)
1.9	i	CCOC(=O)c1cc2sccc2n1CC(=O)N1c2ccccc2CC1C (stereo unspecified)

Grouped by structure, the compounds so far containing a thiophene ring, fused or not.
KCNQ2 inh baseline	KCNQ2 inh	SMILES
-0.29	i	O=S(=O)(NCc1cccs1)c1ccc(Cl)s1
1.9	i	CCOC(=O)c1cc2sccc2n1CC(=O)N1c2ccccc2CC1C (stereo unspecified)

(continued)
KCNQ2 inh baseline	KCNQ2 inh	SMILES
0.79	i	Cc1ccccc1-c1ccc(Nc2ccc(N3CCOCC3)cc2)nn1
-1.3	i	O=C(CNc1cccc(S(=O)(=O)N2CCOCC2)c1)Nc1cccc(Br)c1
1.9	i	Cc1ccc(NC(=O)CCn2nc([N+](=O)[O-])cc2C)nc1
2.1	i	COc1ccc(S(=O)(=O)N2CCCC2C(=O)NCc2ccccc2Cl)cc1 (stereo unspecified)
0.25	i	O=C(O)c1cc(S(=O)(=O)O)ccc1O
0.23	i	COC(=O)COc1ccc(S(=O)(=O)NCCC2=CCCCC2)cc1Cl
0.36	i	COc1cccc(NC(=O)Cc2nnc(SCC(=O)c3ccccc3)n2C)c1
-1.2	i	COc1ccc(NC(=S)NCCc2c[nH]c3ccccc23)cc1
-2.6	i	CC(=O)Nc1cc(C(=O)O)ccc1S(=O)(=O)c1ccc(Cl)cc1
-0.49	i	CC(C)c1ccc(NC2CCCN(C(=O)CC3CCCC3)C2)cc1 (stereo unspecified)
0.1	i	CN(C(=O)c1ccccc1F)C(c1ccccc1)c1ccccc1
-0.2	i	C=CCOc1cccc(/C=C/c2nc3ccccc3c(=O)[nH]2)c1

Copied from the list.
KCNQ2 inh baseline with COCc1cc(C)n(CC(=O)OC)c(=O)c1C#N → -0.22
KCNQ2 inh baseline with O=C(OCc1nnc(-c2ccc(Cl)cc2)o1)c1ccncc1 → -1.4
KCNQ2 inh baseline with O=C(O)c1cc(S(=O)(=O)O)ccc1O → 0.25
KCNQ2 inh baseline with COc1ccc(NC(=S)NCCc2c[nH]c3ccccc23)cc1 → -1.2
KCNQ2 inh baseline with COc1ccc(-n2c(-c3ccc(Br)cc3)c[n+]3c2CCC3)cc1 → 0.1
KCNQ2 inh baseline with CN(C(=O)c1ccccc1F)C(c1ccccc1)c1ccccc1 → 0.1
KCNQ2 inh baseline with CC(=O)c1ccc(OC(C)C)c(CSc2nc(O)cc(=O)[nH]2)c1 → -1.2

Additional entries follow.
KCNQ2 inh baseline	KCNQ2 inh	SMILES
0.35	i	Cc1ccc(C(=O)Oc2cccc(NC(=O)c3ccccc3)c2)cc1C
2.6	i	O=C(CN1CCc2ccccc2C1)Nc1ccccc1C(F)(F)F
0.94	i	O=C(Nc1ccccc1Oc1ccccc1)c1cc([N+](=O)[O-])ccc1Cl
0.7	i	Cc1ccc(N2CC(C(=O)Nc3cccc(F)c3)CC2=O)cc1 (stereo unspecified)
1.8	i	CCOCCCNC(=S)N(Cc1ccco1)Cc1cc2cc3c(cc2[nH]c1=O)OCCO3
-0.15	i	COC(=O)c1cc(OC)c(OC)cc1NC(=O)Cc1cccs1
1.2	i	COc1ccc(/C=N/N(c2ccccc2)c2ccccc2)cc1O
-0.21	i	CCOC(=O)c1nnn(-c2nonc2N)c1-c1ccc(OC)cc1
0.82	i	COc1ccc(-n2nc(C(=O)NCC(=O)Nc3cc(OC)c(OC)c(OC)c3)c3ccccc3c2=O)cc1OC
-0.15	i	CC1CCN(S(=O)(=O)c2cccc(-c3cn4cc(Cl)ccc4n3)c2)CC1
-0.19*	-6.2*	CC(NC(=O)/C=C/c1ccccc1[N+](=O)[O-])C1CC2CCC1C2 (stereo unspecified)
-0.46	i	CCc1ccc(OCC(=O)N2CCN(c3ccccc3F)CC2)cc1

Whole records as entered above. Screens in order: KCNQ2 inh baseline, KCNQ2 inh
Shown for `COc1ccc(-n2c(-c3ccc(Br)cc3)c[n+]3c2CCC3)cc1` = 0.1, i
Shown for `O=C(CN1CCc2ccccc2C1)Nc1ccccc1C(F)(F)F` = 2.6, i
Shown for `CC(C)c1ccc(NC2CCCN(C(=O)CC3CCCC3)C2)cc1` (stereo unspecified) = -0.49, i
Shown for `O=C(CNc1cccc(S(=O)(=O)N2CCOCC2)c1)Nc1cccc(Br)c1` = -1.3, i
Shown for `COc1ccc(C2=NOC(C)(c3nnc(-c4ccc(Cl)cc4)o3)C2)cc1` (stereo unspecified) = 0.54, i

Additional entries
KCNQ2 inh baseline	KCNQ2 inh	SMILES
-0.49	i	COc1ccc(-n2ncc3c2CC(C)(C)CC3NC(=O)CCc2c(C)noc2C)cc1 (stereo unspecified)
-0.72	i	CC(=O)Cn1c(CN2CCN(C(=O)c3ccco3)CC2)nc2c1c(=O)n(C)c(=O)n2C
0.42*	-6*	CN1CCN(S(=O)(=O)c2cccc(C(=O)Nc3ccccc3N3CCCCC3)c2)CC1
0.5	i	Cc1cccc(Sc2c(C=O)c3ccccc3n2C)c1
1.6	i	COc1cccc(CN(CC2CCCO2)S(=O)(=O)c2ccc(-n3cnnn3)c(OC)c2)c1 (stereo unspecified)
-0.21	i	O=C(COC(=O)C12CC3CC(CC(C3)C1)C2)NC12CC3CC(CC(C3)C1)C2
-0.7	i	Cc1cccc(OCC(=O)N/N=C\c2cn(C)c3ccccc23)c1
-0.74	i	O=C(CN1C(=O)S/C(=C\c2cccs2)C1=O)Nc1ccc(O)c(C(=O)O)c1
-0.67	i	C/C(=N\NC(=O)CN(c1ccccc1)S(=O)(=O)c1ccccc1[N+](=O)[O-])C(C)(C)C
1.8	i	COc1cccc(OCC(=O)Nc2ccccc2NC(C)=O)c1
0.47	i	O=C(Nc1cccc(-c2cn3ccccc3n2)c1)c1cc2ccccc2oc1=O
0.8	i	Cc1ccc(-n2nc3c(c2NC(=O)c2ccco2)CS(=O)(=O)C3)c(C)c1
-0.34	i	COC(=O)CNC(=O)c1ccc(NS(=O)(=O)c2cc([N+](=O)[O-])ccc2Cl)cc1
2.2	i	COc1ccc2c(c1)c(C(=O)O)c(C)n2-c1ccccc1
-0.13	i	Cc1cccc(Nc2nc(N)nc(CSC(=S)N3CCOCC3)n2)c1
-0.26	i	CC1C(=O)N2CCCc3cc(NC(=O)C(=O)NCCCc4ccccc4)cc1c32 (stereo unspecified)
0.45	i	Clc1ccc(CSc2ncn[nH]2)cc1
1.9	i	CC(=O)c1sc(NC(=O)C2CCN(c3ncnc4sc(C)c(C)c34)CC2)nc1-c1ccccc1
-0.59	i	CCOc1ccc(NC(=O)Cn2nnc3c(cnn3-c3ccc(F)cc3)c2=O)cc1
0.54	i	NCc1cccc(-n2cccn2)c1
1.5	i	CC(C)C(=O)N1N=C(c2ccc(NS(C)(=O)=O)cc2)CC1c1cccs1 (stereo unspecified)
0.07	i	CCN(CC)C(=O)CC(c1ccc(F)cc1)c1ccc(OC)cc1 (stereo unspecified)
-0.16	i	Cc1cc(-c2nnc(SCC(=O)Nc3ccc(S(N)(=O)=O)cc3)n2N)n[nH]1
0.1	i	O=c1[nH]c2ccccc2c(O)c1O
0.82	i	CC(=O)Nc1nnc(-c2ccco2)o1
0.13	i	COc1ccccc1NS(=O)(=O)c1cccc(N2CC(O)=C(c3ccccc3)C2=N)c1
1.8	i	CCC/C(O)=C1\C(=O)CC(C)(C)CC1=Nc1ccc(OC)cc1
2.5	i	O=C(NC12CC3CC(CC(C3)C1)C2)c1ccccc1
-0.05	i	Cc1sc2ncnc(SCC(=O)NC(C)C(C)C)c2c1C (stereo unspecified)
-1.9	i	Cc1nn(-c2ccccc2)c(N2CCCC2)c1/C=N/Nc1ccc(S(N)(=O)=O)cc1[N+](=O)[O-]
-0.01	i	CCC(C)NCCOc1ccccc1C (stereo unspecified)
-0.02	i	Cc1c(C(=O)COC(C)(C)C)[nH]c2ccccc12
2	i	Cc1cccc(CCNC(=O)C2CCN(S(=O)(=O)c3cccc4nsnc34)CC2)c1
-0.78	i	O=C(Nc1ccccc1C(=O)NC(Cc1ccccc1)C(=O)O)c1ccco1 (stereo unspecified)
-1.6	i	S=c1sc2c(N3CCN(Cc4ccccc4)CC3)ncnc2n1-c1ccccc1
1.4	i	COc1ccc2[nH]cc(/C=C/C(=O)c3ccccc3)c2c1
2.1	i	CCOc1ccc2[nH]c3c(c2c1)CNCC3
-0.05	i	COCc1nnc(NS(=O)(=O)c2ccc([N+](=O)[O-])cc2)s1
-0.36	i	CC(C)c1cc(Br)ccc1OCCCN1C(=O)NC(C)(C)C1=O
-0.52	i	N#Cc1ccc(-c2cccnc2)nc1SCc1ccc(Cl)c(Cl)c1
-2.5	i	Cc1ccc(/C=N/NC(=O)c2cc(C)oc2C)cc1
-0.75	i	O=C1NCCn2ccc(=O)cc21
-0.7	i	O=C1NN(c2ccccc2)C(=O)/C1=C/c1ccc(Sc2cccc3ccccc23)o1
2	i	CC(=O)Nc1ccc2c(c1)nc(CCNC(=O)c1ccco1)n2C
1	i	COc1ccc(/C=N/Nc2nc(Nc3ccccc3)nc(N3CCCCC3)n2)c(OC)c1
2.3	i	COc1ccc(F)cc1S(=O)(=O)n1cc(C)nc1-c1ccccc1
-1.4	i	O=C(CNC(=S)N(CCCN1CCOCC1)Cc1cccs1)NCc1ccccc1
-0.71	i	O=C(O)c1cc(C(=O)O)c(-c2ccccc2)c(C(=O)O)c1
-1.6	i	O=C(c1ccco1)n1nc(-c2ccco2)nc1SCc1ccccc1
-0.1*	-5.9*	CCc1nc(N2CCC(C)CC2)c2oc3ccccc3c2n1
-0.71	i	COc1ccc(C(=O)N2CCCc3ccccc32)cc1
1.5	i	CCC(c1nnnn1C(C)C)N1CCN(C2CCCC2)CC1 (stereo unspecified)
2.2	i	c1ccc(-c2ccccc2OCCN2CCOCC2)cc1
-0.47	i	Oc1[nH]c2ccc(Br)cc2c1N=NC(=S)Nc1ccc(F)cc1
0.3	i	CN1CCN(S(=O)(=O)c2cccc(C(=O)Nc3cccc([N+](=O)[O-])c3)c2)CC1
-0.68	i	COc1ccc(NC(=S)NNC(=O)CNc2ccc(Cl)cc2)cc1
0.09	i	O=C(CSc1nnc(CNC(=O)c2c(F)cccc2F)o1)NCCc1ccccc1
-1.2	i	O=C(CC(=O)Nc1cccnc1)Nc1cccnc1
0.86	i	O=C(c1ccc(NS(=O)(=O)c2ccc3[nH]c(=O)[nH]c3c2)cc1)N1CCCCC1
-1.5	i	N#Cc1c(Nc2ccccc2)s[nH]c1=O

Additional results follow.
KCNQ2 inh baseline	KCNQ2 inh	SMILES
0.64	i	COc1cc(C(=O)NCCc2ccc(F)cc2)c([N+](=O)[O-])cc1OC
-0.44	i	Cc1cc(C)c(C)c(S(=O)(=O)N(C)C2CCN(C)CC2)c1C
1.1	i	CCNC(=S)N1CCN(S(=O)(=O)c2ccc(C)cc2)CC1
-1.1	i	CC(=O)n1c(-c2ccccc2)c(-c2ccccc2)n(C)c1=O
-1.1	i	COc1ccc(C)cc1NC(=O)C1CCN(C(=O)c2ccco2)CC1
1.8	i	CCN(C(=O)c1ccc2c(OC)n(CC)nc2c1)c1ccc(OC)cc1
-2.6*	-5.8*	O=C1CN(c2ccccc2)C(=S)N1C(=O)c1ccc(Br)cc1
0.39	i	C=C(C)CSc1nnc([C@@H]2CCCN2C(=O)OC(C)(C)C)o1
0.29	i	Cc1ccc(C(=O)NCCCc2ccccc2)s1
-0.01	i	Cc1cc(Cl)ccc1OC(C)C(=O)Nc1ccccc1N1CCOCC1 (stereo unspecified)
0.54	i	CCn1c(=O)c2cc(C(=O)Nc3ccc(OC)cc3OC)sc2c2ccccc21
0.12	i	CCOc1ccc(-n2cnnn2)cc1S(=O)(=O)N1CCC(C)CC1C (stereo unspecified)
0.7	i	Cc1cccc(N=C2NC(=O)/C(=C/c3cccs3)S2)c1
-1.4	i	COc1ccc(S(=O)(=O)N(C)C)cc1NCC(=O)Nc1ccc(Br)c(C)c1
0.56	i	O=C(COc1cccnc1[N+](=O)[O-])Nc1cc(S(=O)(=O)N2CCCCC2)ccc1Cl
2.4	i	O=C(O)c1ccccc1-c1ccccc1C(=O)Nc1nccs1
1.1	i	Cc1ccccc1C1CC(c2cccs2)Nc2nnnn21 (stereo unspecified)
-1.7	i	COc1cc(C(=O)N2CCN(C(=O)C3COc4ccccc4O3)CC2)cc(OC)c1OC (stereo unspecified)
1.6	i	O=C(N[C@@H](Cc1ccc(O)cc1)C(=O)O)c1ccc(C(F)(F)F)cc1
-0.84	i	COc1cc(SC)ccc1C(=O)NCCOc1ccc(C)c(C)c1
-1.5	i	O=C(NCc1ccc(Cl)cc1)C1CCN(S(=O)(=O)c2cccs2)CC1
0.18	i	N=c1c(C(=O)NCc2ccco2)cc2c(=O)n3ccccc3nc2n1Cc1ccccc1
-0.2	i	CCOC(=O)C1CCCN(C(=O)c2cc(-c3ccccc3)nc3ccccc23)C1 (stereo unspecified)
2.2	i	O=C(/C=C\c1ccco1)NC(=S)Nc1ccccc1O
0.42	i	CCCC1CC(CSC(=N)N)OC1=O (stereo unspecified)
-0.29	i	COc1cc(C(=O)NCC(c2ccco2)N(C)C)cc(OC)c1OC (stereo unspecified)
-0.96	i	COCCN1Cc2cccc(C(=O)NCc3ccccc3OC)c2C1=O
-0.03	i	Cc1ccnc(N2CCC(C(=O)NC3CCCCCC3)CC2)n1
-1.8	i	CCCn1nc(NS(=O)(=O)c2cccc3nonc23)c2cc3cccc(C)c3nc21

Only part of the results is shown (hit frequency here may not be typical).
